Calb biofilm kill: mixture kills Candida albicans biofilm cells; C. albicans biofilm persisters + clotrimazole, fluorescence viability; primary screen in compound mixtures of four per well; inhibition, % at 7.6 µM; AID 1242; actives 0.02% (n = 120,000);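 active = inhibition above 30.3% in the primary screen of four-compound pools, then above 30% when the compound was retested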;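 also: compounds exposed to preformed 24 h biofilms for 48 h; the number belongs to the whole pool; some results filed as inactive read as strong as hits; inactives centre near 12; 0% = biofilm with clotrimazole alone and 100% = kill control; retested singly at about 60 µM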
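Test system: C. albicans biofilms. Buffer or medium: RPMI/MOPS medium, pH 7.0. Timing: 48 h compound exposure at 37 °C. Technique: Alamar Blue fluorescence. Evaluation: percent inhibition of biofilm viability.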
Starred values were filed as active, the others as inactive. A portion of the library; the hit share may differ from the screen's.

no. | molecule | Calb biofilm kill
1 | O=C(c1ccc(F)cc1)N1CCCC(C(=O)N2CCN(c3ccccc3)CC2)C1 (configuration not stated) | 15
2 | CCOC(=O)C1(CC2CCCCO2)CCN(Cc2nccn2-c2cccc(C)c2)CC1 (configuration not stated) | -2
3 | CC(C)n1c2ccccc2c2nnc(SCC(=O)Nc3ccccc3C(=O)O)nc21 | 13
4 | CSc1ccc(/C=C(/NC(=O)c2ccc(C)cc2)C(=O)Nc2cccc(C)c2)cc1 | 12
5 | CCOC(=O)C1(CC2CCCCO2)CCN(S(=O)(=O)c2c(C)nn(C)c2C)CC1 (configuration not stated) | 11
6 | Cc1ccc(C(=O)CSc2nnc(COc3ccccc3)o2)cc1 | 4
7 | CC(NC(=O)c1cccc2ccccc12)c1ccc2c(c1)CCCC2 (configuration not stated) | 5
8 | O=C(Nc1nnc(CCN2CCCCC2)s1)c1ccccc1Cl | 17
9 | OCCNc1nc2ccccc2nc1NCCO | 17
10 | COc1ccc(OC)c(/C=N/NC(=O)Cn2ccnc2C)c1 | 10

An excerpt from above in order of SMILES length, lowest first:
no. | molecule | Calb biofilm kill
10 | COc1ccc(OC)c(/C=N/NC(=O)Cn2ccnc2C)c1 | 10
6 | Cc1ccc(C(=O)CSc2nnc(COc3ccccc3)o2)cc1 | 4
7 | CC(NC(=O)c1cccc2ccccc12)c1ccc2c(c1)CCCC2 (configuration not stated) | 5
3 | CC(C)n1c2ccccc2c2nnc(SCC(=O)Nc3ccccc3C(=O)O)nc21 | 13
1 | O=C(c1ccc(F)cc1)N1CCCC(C(=O)N2CCN(c3ccccc3)CC2)C1 (configuration not stated) | 15
5 | CCOC(=O)C1(CC2CCCCO2)CCN(S(=O)(=O)c2c(C)nn(C)c2C)CC1 (configuration not stated) | 11
4 | CSc1ccc(/C=C(/NC(=O)c2ccc(C)cc2)C(=O)Nc2cccc(C)c2)cc1 | 12

Following part.
no. | molecule | Calb biofilm kill
11 | CN1CCN(c2nc(Nc3ccc(O)cc3)nc3ccccc23)CC1 | 19
12 | O=C(O)c1ccc(-c2ccccc2)[nH]c1=O | 16
13 | CCOc1ccc(NC(=S)N2CCCCCC2)cc1 | 21
14 | Cc1ccc(-c2noc(-c3ccccc3C(=O)NCc3ccco3)n2)cc1 | 24
15 | C/C(=N\NC(=O)c1ccccn1)c1ccc(Cl)cc1 | 13
16 | COc1ccc(C(=O)CSc2ccc(-c3ccc(C)cc3)nn2)cc1 | 10
17 | O=C(NCCCl)Nc1cc([N+](=O)[O-])ccc1Cl | 19
18 | Cc1ccc(NC(=O)COC(=O)[C@H](C)N2C(=O)C3CC=CCC3C2=O)cc1S(=O)(=O)N(C)C (some centres not stated) | -6
19 | Cc1ccc(N=Nc2ccc(O)c(P(=O)(c3ccccc3)c3ccccc3)c2)cc1 | 14
20 | CC(CCc1ccccc1)NC(=O)c1cccc([N+](=O)[O-])c1 (configuration not stated) | 10
21 | O=C(C1CCN(S(=O)(=O)c2cccnc2)CC1)N1CCN(c2ccc(Cl)cc2)CC1 | 4
22 | CC(=O)c1c(C)[nH]c(C(=O)OCC(=O)NCC(C)C)c1C | 18
23 | COc1ccccc1NC(=O)c1cc(OC)c(OC)cc1[N+](=O)[O-] | 6
24 | CC(=O)n1cc([C@H]2C=C(C(=O)Nc3ccccc3)O[C@@H](OCCCCO)C2)c2ccccc21 | 5
25 | O=C1CC(NCc2ccccc2)C(=O)N1c1ccc(F)cc1 (configuration not stated) | 7
26 | Cc1cc(C=C2C(=O)c3ccccc3C2=O)c(C)n1-c1ccc(C(=O)O)cc1 | 4
27 | Cc1ccc(S(=O)(=O)NC(C(=O)Oc2ccc3c(C)c(Cl)c(=O)oc3c2)c2ccccc2)cc1 (configuration not stated) | 23
28 | CCN1CCN(C(=O)c2nn(-c3ccc(OC)cc3)c(=O)c3c2c2ccccc2n3C)CC1 | 19
29 | Cc1[nH]c2c([N+](=O)[O-])cccc2c1C | 7
30 | COc1ccccc1CCNC(=O)Nc1cccc([N+](=O)[O-])c1 | 13
31 | O=C(COC(=O)Cc1ccsc1)Nc1ccccc1 | 18
32 | COC(=O)Cc1ccc(NC(=S)NCc2ccccc2OC)cc1 | 13
33 | Cc1cc(/C=C2/SC(=O)N(CC(=O)N3CCCC3)C2=O)ccc1N1CCOCC1 | 18
34 | NC(=O)COC(=O)c1sc2ccccc2c1Cl | 6
35 | Cc1ccc(NC(=S)NNC(=S)Nc2cccc(C(F)(F)F)c2)cc1 | 9
36 | CCOC(=O)C1CCCN(C(=O)c2ccc3c(c2)N(Cc2ccccc2)C(=O)c2ccccc2S3=O)C1 (configuration not stated) | 31
37 | O=C(COC(=O)c1cc[n+]([O-])cc1)Nc1ccc(Cl)cc1[N+](=O)[O-] | 17
38 | COc1ccc(C(CC(=O)NCc2ccccc2)C(C)C)cc1 (configuration not stated) | 16
39 | CCOc1ccc(NC(=O)CC2C(=O)N(C)C(=S)N2Cc2ccc3c(c2)OCO3)cc1 (configuration not stated) | 6
40 | CCCCCCCCC(=O)NNC(=O)c1c(O)c2ccccc2n(CCC)c1=O | 16
41 | CN(C)CCCNC(=S)N1CCn2c(nc3ccccc32)C1 | 19
42 | Cc1ccc(-c2csc3nc[nH]c(=S)c23)cc1C | 15
43 | COc1ccc(S(=O)(=O)N(CC(=O)Nc2ccc(S(=O)(=O)N3CCOCC3)cc2)c2ccccc2)cc1 | 8
44 | Cc1ccc(C2(CC(=O)O)CCOC(C)(C)C2)cc1 (configuration not stated) | 8
45 | CN(C)c1nc(C(F)(F)F)cc(=O)[nH]1 | 17
46 | CCOC(=O)C1=C(C)NC(=S)NC1C (configuration not stated) | 13
47 | Cn1ncc(Cl)c1C(=O)N/N=C/c1cccc(OC2CSC2)c1 | 12
48 | CCN1CCN(C(=O)c2cc(S(=O)(=O)Nc3ccc(S(C)(=O)=O)cc3)ccc2Cl)CC1 | 9
49 | C/C(CCc1ccccc1)=N\NC(=O)c1ccccc1 | 20
50 | Cc1ncc(CN2CCN(C(C)C)C(CCO)C2)s1 (configuration not stated) | 6
51 | CCn1cc(C=C2C(=O)c3ccccc3C2=O)c2ccccc21 | -13
52 | NNC(=O)c1cccc(Cn2cc(Br)c([N+](=O)[O-])n2)c1 | 17
53 | CCOc1nc(Nc2ccc(OC)cc2)nc(N2CCOCC2)n1 | 3
54 | C=CCOc1ccc(C2NC(=S)NC3=C2CCc2ccccc23)cc1 (configuration not stated) | 17
55 | CCOc1ncccc1C(=O)OCC(=O)Nc1ccc(C(C)C)cc1 | 17
56 | O=[N+]([O-])c1ccc(N2CCCCC2)nc1N1CCCCC1 | 16
57 | CC(C)N(C(=O)Cn1c(SCC(=O)NCc2ccc3c(c2)OCO3)nc2ccccc21)C(C)C | 4
58 | CCOC(=O)c1c(-c2ccc(OC)cc2)csc1/N=C/N(C)C | 21
59 | CCNC(=O)NC(=O)C(C)OC(=O)c1cccn1C (configuration not stated) | 9
60 | COCCN(C)C(=O)CCc1nnc(Cc2ccc(-c3ccccc3)cc2)o1 | 23

Further entries follow.
no. | molecule | Calb biofilm kill
61 | COc1ccc(N2CCN(C(=O)CSc3ccc([N+](=O)[O-])cc3)CC2)cc1 | 14
62 | CCOC(=O)c1cnc2c(-c3ccc(Cl)cc3)c(C)nn2c1N | 19
63 | CCC(C)NC(=O)C1CCN(S(=O)(=O)c2ccc(Br)s2)CC1 (configuration not stated) | 9
64 | Cc1ccnc(NC(=S)NC(=O)c2cncc(Br)c2)c1 | -8
65 | COc1cccc(C(=O)Oc2c(Br)cc(Br)cc2/C=N/NC(=O)c2cc(C)[nH]n2)c1 | 2
66 | Nc1nc(SCc2ccccc2)n[nH]1 | 22
67 | O=C(Cc1ccccc1F)c1ccc(O)cc1O | 7
68 | Cc1[nH]c(=O)[nH]c(=O)c1S(=O)(=O)N1CCC(C(=O)NC(C)c2ccccc2)CC1 (configuration not stated) | 9
69 | CNc1nc(OC)nc(N(C#N)CN2C(=O)c3ccccc3S2(=O)=O)n1 | 9
70 | COc1ccc(C(=O)O/N=C2\CCS(=O)(=O)c3sccc32)cc1 | 15

Nothing new here: an excerpt of the list.
no. | molecule | Calb biofilm kill
62 | CCOC(=O)c1cnc2c(-c3ccc(Cl)cc3)c(C)nn2c1N | 19
63 | CCC(C)NC(=O)C1CCN(S(=O)(=O)c2ccc(Br)s2)CC1 (configuration not stated) | 9

New compounds follow.
no. | molecule | Calb biofilm kill
71 | NS(=O)(=O)c1ccc(N/N=C/c2ccccc2C(=O)O)c([N+](=O)[O-])c1 | 4
72 | O=C(O)CC/C(=N\NC(=O)c1ccccc1)c1cccs1 | 9
73 | Fc1ccccc1/C=N/Nc1ncnc2nc[nH]c12 | -4
74 | CCSc1nc(N)c(C#N)c(-c2ccco2)c1C#N | 21
75 | CC(=O)c1sccc1NC(=O)CC(C)(C)CC(=O)O | 14
76 | CC(C)(C)C(=O)Nc1nnc(Cc2ccccc2)s1 | -6
77 | O=S(=O)(NCc1ccccn1)c1cc(OCC(F)(F)F)ccc1OCC(F)(F)F | 16
78 | N=c1c2c3c(sc2ncn1N)CCCC3 | 20
79 | O=C(Nc1cccc(Cl)c1)c1ccc(Cn2cc(Cl)cn2)cc1 | 16
80 | CCS(=O)(=O)N1Cc2ccccc2CC1C(=O)Nc1ccc(OC)cc1 (configuration not stated) | 13
81 | COC(=O)Cc1[nH]n(-c2nc3ccccc3s2)c(=O)c1C(C)=Nc1ccc(OC)cc1 | 25
82 | O=C(Nc1ccccc1Cl)c1ccc(COc2ccc3c(c2)CCC3)cc1 | 16
83 | O=Cc1s/c(=N\S(=O)(=O)c2ccccc2)n(CCCCl)c1Cl | 25
84 | O=C(CN1CCN(C/C=C/c2ccccc2)CC1)Nc1ccccc1C(=O)NC1CC1 | 25
85 | CC(C)C(=O)Nc1nc2cc3c(cc2s1)OCCO3 | 21
86 | COc1ccc(C2CC(c3cccs3)=NN2C(=O)COC(=O)C2CCCCC2)cc1OC (configuration not stated) | 19
87 | COC(=O)c1cc(NS(=O)(=O)c2ccc(N3CCC(C)CC3)c([N+](=O)[O-])c2)cc(C(=O)OC)c1 | 11
88 | COCCn1c(=O)[nH]c(=O)c2cc(C(=O)c3cc(OC)ccc3O)cnc21 | 24
89 | O=[N+]([O-])c1ccc(O)c(C=Nc2ccc3nc(-c4ccccc4)[nH]c3c2)c1 | 8
90 | Cc1cc(N=Cc2c(O)ccc3cc(Br)ccc23)no1 | 6
91 | COCCCNC(=O)[C@H](CSCc1ccccc1)N1Cc2ccccc2C1=O | 19
92 | COc1cc([N+](=O)[O-])ccc1NC(=O)COC(=O)c1n[nH]c2ccccc12 | 29
93 | NCCCC[C@@H]1NC(=O)c2cc([N+](=O)[O-])cc(F)c2NCCCC[C@@H](C(N)=O)NC(=O)[C@H](CCC(N)=O)NC1=O | 12
94 | CC(C)(C)C(=O)CNCC(=O)C(C)(C)C | 7
95 | O=C(N/N=C/C=C\c1ccccc1[N+](=O)[O-])c1ccncc1 | 18
96 | CCc1ccc(NC(=S)N2CCCCCCC2)cc1 | 4
97 | Cn1cccc1C(=O)NC(=O)COC(=O)c1cc(Cl)ccc1[N+](=O)[O-] | 24
98 | Cc1ccc(-c2nc3c(=O)n(-c4ccccc4)c4c(c(=O)n(C)c(=O)n4C)c3o2)cc1 | 20
99 | Cc1cc(C)nc(SC(C(=O)O)c2ccccc2)n1 (configuration not stated) | 14
100 | Cc1cc(C)c2oc(C(=O)Nc3ccc(S(=O)(=O)Nc4nccs4)cc3)cc(=O)c2c1 | 14
101 | Cc1ccccc1NC(=O)C[n+]1cc(-c2ccccc2)n2c1CCC2 | 5
102 | COc1ccc(C(=O)CSc2nc3c(c(=O)n(C)c(=O)n3C)n2C)cc1 | 4
103 | Cc1c(C(=O)O)cccc1-n1c(C)cc(/C=N/Nc2ccc([N+](=O)[O-])cn2)c1C | 18
104 | COc1cccc(C(=O)NCCN2C(=O)S/C(=C/c3cccs3)C2=O)c1OC | 4
105 | COc1ccc(-c2n(Cc3ccccc3)c3ccccc3[n+]2Cc2ccccc2)cc1 | 15
106 | CC(C)(C)c1ccc(SCCc2cccnc2)cc1 | 5
107 | Nc1c(C(=O)N/N=C/c2cccnc2)oc2nc(-c3ccccc3)cc(-c3ccco3)c12 | 0
108 | Cc1ccc2cc(CCNS(=O)(=O)c3ccc(F)cc3)c(=O)[nH]c2c1C | 16
109 | COc1ccccc1N1CC(C)(C)C(=O)N(C(=O)c2ccc(C)cc2)C1=S | 0
110 | C=CCn1c(C)nnc1SCC(=O)c1[nH]c(C)c(C(C)=O)c1C | 6
111 | Cc1cccc(NC(=O)/C(C#N)=C\c2ccc(C(=O)O)cc2)c1 | 17
112 | NC1=NC(=O)S/C1=C\c1ccc(F)cc1 | 14
113 | Cn1nc(C(F)(F)F)c2cc(C(=O)N3CCOCC3)sc21 | 15
114 | O=C(CSc1ccc(F)cc1)Nc1ccc(C2SCCS2)cc1 | 9
115 | O=C1C=C(Nc2ccccc2)c2ccccc2C1=O | 13
116 | Cc1ccc([N+](=O)[O-])cc1-c1ccc(/C=C(\C#N)c2[nH]nc(N)c2C#N)o1 | 13
117 | Cc1noc(C)c1C(=O)N(C)Cc1ccccc1 | 20
118 | O=C(CSc1nc2ccccc2c(=O)[nH]1)c1ccccc1 | 9
119 | COC(=O)Cc1ccc(NC(=S)NCc2cccc(OC)c2)cc1 | 4
120 | C(=N\N1CCN(Cc2ccccc2)CC1)/c1ccccc1 | 24

Next results
no. | molecule | Calb biofilm kill
121 | NS(=O)(=O)c1ccc(CCNC(=O)COC(=O)CC(c2ccccc2)c2ccccc2)cc1 | -4
122 | OCCNc1cc(Cl)ncn1 | 25
123 | O=C(NC(c1ccccc1)c1ccccn1)c1cccc([N+](=O)[O-])c1 (configuration not stated) | -7
124 | CCn1cc(CNC(=S)Nc2cccc3ccccc23)cn1 | 2
125 | CCc1nc2ccccc2[nH]c1=O | 9
126 | Cc1cc(-c2nc3ccccc3[nH]2)ccc1N | 7
127 | CCC1C(=O)NCCN1C(=O)c1ccccc1OC1CCN(S(C)(=O)=O)CC1 (configuration not stated) | 0
128 | O=C(c1ccc(S(=O)(=O)Cc2ccccc2F)c([N+](=O)[O-])c1)N1CCCC1 | 9
